VACV Venus inh: qHTS for Stage-Specific Inhibitors of Vaccinia Orthopoxvirus: Venus Reporter Primary qHTS. Vaccinia virus Venus reporter expression, fluorescence. Potency, µM (highest dose often 36.5 µM), inactives show at the top dose activity change, negative = inhibition, hits mostly inhibitors. 0.46% of 330,000 active; active means well fitted inhibition curve with a large enough effect; inconclusive means small, poorly fitted or top-dose-only effect; inactive means no such curve, though single readings can be large or run the other way; tested in A549 cells; further: nearly all actives have a fitted effect of over 30% in size; inactives centre near -10
Vaccinia mCherry: qHTS for Stage-Specific Inhibitors of Vaccinia Orthopoxvirus: mCherry Reporter Primary qHTS. Vaccinia virus mCherry reporter infection, fluorescence; about a quarter of the inactives have no number. Potency, µM (doses to about 36.5 µM), for inactives: top-dose activity change, negative = inhibition, usual class: inhibitors. 0.63% of 310,000 active. AID 720579, 2013; active = well fitted inhibition curve with a large enough effect; inconclusive = small, poorly fitted or top-dose-only effect; inactive = no such curve, though single readings can be large or run the other way; tested in A549 cells; further: nearly all actives have a fitted effect of over 35% in size; inactives centre near -10
Numbers without * were called inactive; i = inactive; u = inconclusive; x = no result given; & = joins results of further samples; [ ] = another dose, or the depositor's remark. On the % scale 0 is the no-effect control and ±100 the full control effect; potency means the concentration at half of the fitted maximal effect.

Start of the data: the first 5 entries as a preview:
smiles	Vaccinia mCherry	VACV Venus inh
CCN(CC)S(=O)(=O)N1CCC(C(=O)NCCN2CCOCC2)CC1	-14%	-4%
CC(/C=N/Nc1nc(N2CCCCC2)nc(N2CCCCC2)n1)=C\c1ccccc1	-4%	1%
COc1ccc(S(=O)(=O)N2CCN(C(=O)c3c(C)nn(-c4ccccc4)c3C)CC2)cc1	10%	-11%
CCc1cccc(NC(=O)C2CCCN(c3ncnc4c3nc3n4CCCCC3)C2)c1 (stereo not drawn)	i	u
O=C(CCC1CCCCC1)Nc1c2c(nn1-c1ccc(F)cc1)CS(=O)(=O)C2	-9%	-2%

The whole of this part, previewed entries included:
smiles	Vaccinia mCherry	VACV Venus inh
CCN(CC)S(=O)(=O)N1CCC(C(=O)NCCN2CCOCC2)CC1	-14%	-4%
CC(/C=N/Nc1nc(N2CCCCC2)nc(N2CCCCC2)n1)=C\c1ccccc1	-4%	1%
COc1ccc(S(=O)(=O)N2CCN(C(=O)c3c(C)nn(-c4ccccc4)c3C)CC2)cc1	10%	-11%
CCc1cccc(NC(=O)C2CCCN(c3ncnc4c3nc3n4CCCCC3)C2)c1 (stereo not drawn)	i	u
O=C(CCC1CCCCC1)Nc1c2c(nn1-c1ccc(F)cc1)CS(=O)(=O)C2	-9%	-2%
NC(=O)c1cc(S(=O)(=O)N2CC=C(c3ccccc3)CC2)cs1	-5%[7.34 µM]	8%[7.34 µM]
CCC(C(=O)NCCc1ccccc1)n1nc(C)c2sc3ccccc3c2c1=O (stereo not drawn)	-18%	-15%
O=C1Nc2ccc(Br)cc2C1=Nc1cccnc1	-22%	-12%
O=C(c1cccc(Br)c1)N1CCN(S(=O)(=O)N2CCCCCC2)CC1	-6%	-24%
O=C(Nc1ccc(F)cc1F)c1cc(-c2ccc3c(c2)OCO3)on1	-6%&-1%	-4%&-1%
C#CC(=O)N(c1ccc(OC)cc1OC)C(C(=O)NC1CCCC1)c1cccs1 (stereo not drawn)	10µM*	10µM*
COc1cc(C(=O)OCC(=O)N2CCN(S(=O)(=O)c3ccc(C)cc3C)CC2)c([N+](=O)[O-])cc1OC	-1%	u
COC(=O)c1c(NC(NC(=O)CC(C)C)C(Cl)(Cl)Cl)sc2c1CCC2 (stereo not drawn)	-8%	-6%
O=S(=O)(NC1Cc2ccccc2C1)c1ccccc1	-28%	-18%
COc1ccc(/C=C/c2ccnc3ccccc23)cc1	u	u
Cc1nn(Cc2cccc(F)c2)c(C)c1NC(=O)c1c([N+](=O)[O-])c(C)nn1C	i	-10%
COC(=O)CCCNC(=O)c1ccccn1	i	-12%
CCCC(=O)NC(=S)Nc1cccc(-c2nc3ncccc3o2)c1	i	-19%
COc1ccc2c(c1O)-c1c(OC)c(OC)cc3c1[C@H](C2)N(C)CC3	-20%	-12%
COc1ccc(-c2oc3ccccc3c(=O)c2OC(=O)c2ccc(C)cc2)cc1	x	u
Oc1ccccc1/C=N/Nc1ncc(Br)cn1	u	u
CCOc1ccccc1NC(=O)c1cc(Cl)ccc1NC(=O)c1ccco1	-2%	-8%
Cc1cc(Oc2nc3ccccn3c(=O)c2/C=C(\C#N)c2nc3ccccc3s2)ccc1Cl	-13%	-4%
Cc1cc(C)cc(C(=O)NC(CC(N)=O)c2ccc(N3CCN(C)CC3)c([N+](=O)[O-])c2)c1 (stereo not drawn)	u	-8%
CCOc1ccc2nc(N3CCC(C(=O)Nc4ccc(Br)cc4F)CC3)sc2c1	u	u
CC(=O)OCC(=O)C1CCC2C3CC=C4CC(O)CC[C@@]4(C)C3CC[C@]12C (stereo partly drawn)	i	-10%
CCc1nc2ccc(C(=O)NCCCn3ccnc3)cn2c1N(C)Cc1cc2ccccc2s1	i	-9%
CC(C)COc1ccc(N)cc1OCC(C)C	4%	9%
CN(C(=O)CN1C(=O)NC(C)(c2cccc(Br)c2)C1=O)C1CCCCC1 (stereo not drawn)	-23%	-19%
CNC(=S)NNC(=O)c1ccccc1Br	-14%	-11%

Next section
smiles	Vaccinia mCherry	VACV Venus inh
Cc1ccc(CCNC(=O)c2coc3nc4ccccc4nc23)cc1	-11%	14%
CCOc1ccc(-n2cnnn2)cc1S(=O)(=O)NCc1ccccc1	-12%	-4%
O=C(NCc1cccnc1)c1cnc2sccn2c1=O	15%	-8%
CCN1CCCn2c1nc1c2c(=O)n(C)c(=O)n1C	i	-7%
CC1CCCN(c2cc3c(cc2F)c(=O)c(S(=O)(=O)c2cccc(Cl)c2)cn3C)C1 (stereo not drawn)	-6%	-19%
CC(=O)OC[C@H]1COc2ccc3ccccc3c2[C@H]1N(C)C(C)=O	-2%	-13%
Cn1c(=O)[nH]c(=O)c2c1nc(NCCCO)n2CCOc1ccccc1	-1%	-10%
COc1ccccc1-c1nnc(N)s1	i	-13%
CN(Cc1ccc(F)cc1)S(=O)(=O)c1ccc2[nH]c(=O)[nH]c2c1	-7%	-16%
C#CCOc1ccc(/C=C2/C(=O)NN(c3ccccc3)C2=O)cc1OC	i	-9%
O=C(NN=C1CCCCCC1)C(=O)Nc1cccc(Br)c1	-10%	-18%
COc1cc(=O)n2c(c1C(=O)NCc1ccco1)CCN(Cc1ccc(F)cc1Cl)CC2	-6%	-8%
CCN=c1scc(C)n1/N=C/c1cc(Br)c(O)c(Br)c1	-5%	-7%
Cc1nn(C)c(C(=O)NNC(=O)Nc2cccc(C(F)(F)F)c2)c1Cl	i	-11%
CCN(CC)P(=O)(Oc1cccc(C)c1)N(CC)CC	i	-11%
COc1ccc(COC(=O)Nc2c(SC)nsc2SC)cc1	i	-18%
Cc1cc(-n2[nH]c(C)c(C)c2=O)nc(-c2ccccc2O)n1	x	-3%
CC(=O)c1c(O)c(C)c(O)c2c1OC1=CC(=O)C(C(C)=O)C(=O)C12C (stereo not drawn)	-24%	-3%
CNC(=S)N/N=C/c1cn(Cc2c(F)cccc2Cl)c2ccccc12	u	-18%
O=C(Nc1ccc(F)c(Cl)c1)c1cc(C2CCCN(S(=O)(=O)c3cccc4cccnc34)C2)on1 (stereo not drawn)	11%	-15%
CCC(Oc1ccc2c(c1)C(=O)CC(C)(C)O2)C(=O)NCCN1CCCCCC1 (stereo not drawn)	-21%	-12%
Cc1ccc(-n2nnc3c(=O)n(Cc4ccccn4)cnc32)cc1C	i	-7%
O=C(NCCc1c[nH]c2ccccc12)c1ccc2c(c1)OCO2	-24%	-11%
COc1ccc(OC)c(N(C(=O)c2ccco2)C(C(=O)NC2CCCC2)c2cc(OC)c(OC)c(OC)c2)c1 (stereo not drawn)	i	5%
Cc1cccc(NC(=O)c2ccc3nc(C(C)C)oc3c2)c1C	-25%	-30%
CCN(CCC(=O)O)c1ccc(/C=C/c2ccnc3ccccc23)cc1	-2%	67%[activator]
COc1ccccc1N(CC(O)Cn1ccnc1C)S(=O)(=O)c1ccc(C)cc1 (stereo not drawn)	-5%	-19%
CCOC(=O)c1ccc(NC(=O)NCCN2CCCCC2)cc1	-17%	-15%
NC(=O)CSc1nc(-c2ccccc2)nc2c1CCCC2	9%	3%
Brc1ccc(-c2nnc3n2CCCCC3)cc1	x	-6%

Look-ups from the list.
Value for CCC(Oc1ccc2c(c1)C(=O)CC(C)(C)O2)C(=O)NCCN1CCCCCC1 (stereo not drawn) under VACV Venus inh: -12%
Value for CC(=O)OC[C@H]1COc2ccc3ccccc3c2[C@H]1N(C)C(C)=O under VACV Venus inh: -13%
Value for O=C(NCCc1c[nH]c2ccccc12)c1ccc2c(c1)OCO2 under Vaccinia mCherry: -24%

(more compounds)
smiles	Vaccinia mCherry	VACV Venus inh
COc1ccc(NC(=O)CN2C(=O)NC(C)(Cc3ccc(OC)c(OC)c3)C2=O)cc1 (stereo not drawn)	-18%	-14%
CSCCC(NS(=O)(=O)c1ccc2c(c1)OCCO2)C(=O)N(C)Cc1ccc(C)cc1 (stereo not drawn)	-17%	-11%
Cc1cc(C(F)(F)F)n2nc(C(=O)O)c(Cl)c2n1	x	-16%
Nc1nonc1-n1nnc(C(=O)N/N=C/c2cccc(Cl)c2)c1CN1CCCCCC1	46%[activator]	-5%
CCOc1ccc(C(=O)Nc2cc(Cl)ccc2-n2cncn2)cc1OC	-16%	-4%
Cc1ccc(S(=O)(=O)N(Cc2cccc(Cl)c2)C(=O)N2CCN(C)CC2)cc1	-14%	-13%
N#Cc1sc2nc(-c3cccs3)cc(-c3ccccc3)c2c1N	-11%	3%
COCCCNCCCCOc1ccc(OCc2ccccc2)cc1	-3%	-19%
COc1ccc(NC(=O)C2CCN(C(=O)NC3CCCCC3)CC2)c(OC)c1	-19%	-11%
CC(C)OCC(O)CN1CCN(C(c2ccccc2)c2ccccc2)CC1 (stereo not drawn)	-14%	-6%
COc1cc(NC(=O)CN(c2cc(C)cc(C)c2)S(=O)(=O)c2c(C)noc2C)cc(OC)c1	13%	1%
COc1ccc2c(c1)CC(=O)NC=C2	6%	-1%
O=C(CSc1nc2[nH]ncc2c(=O)[nH]1)Nc1ccc(Cl)cc1	-16%	-1%
COc1cc(C(=O)N2CCc3ccccc32)ccc1OCc1c(C)noc1C	-4%	-10%
Cc1cccn2c(=O)c3cc(C(=O)NC(C)C)c(=N)n(Cc4ccncc4)c3nc12	-14%	-5%
Cc1cc(=O)[nH]c(SCC(=O)Nc2ccc(Br)cn2)n1	-12%	-6%
CCOC(=O)CN1CC23C=CC(O2)C(C(=O)Nc2ccc(C(C)=O)cc2)C3C1=O (stereo not drawn)	21%	-7%
COC(=O)C1CCN(C(=O)c2cc(=O)[nH]c3ccccc23)CC1	i	-5%
COc1cccc2c1C1(O)C2CCCCCCCCCC12OCCCO2 (stereo not drawn)	-26%	6%
O=[N+]([O-])c1ccc(Oc2ccc(S(=O)(=O)N3CCOCC3)cc2)cc1	u	0%
CC(=O)N1CCN(S(=O)(=O)c2ccc(S(=O)(=O)NC3CCCCC3)cc2)CC1	i	-11%
Cc1ccccc1NS(=O)(=O)c1cc(C(=O)NCc2ccco2)ccc1C	-22%	u
Cc1cccn2c(=O)c3cc(C(=O)NC4CCCC4)c(=N)n(Cc4ccc(F)cc4)c3nc12	-5%[7.34 µM]	9%[7.34 µM]
O=C(NCCc1ccccc1)c1nnc(Cc2cccc(F)c2)o1	-14%	-9%
O=C(O)c1cc(=O)c2ccccc2[nH]1	-5%&-8%	2%&-6%
Cc1cccc(/C(N)=N/OC(=O)Cc2ccccc2)c1	-4%	-4%
COc1ccccc1Cn1c(CNS(=O)(=O)c2ccc3c(c2)CCCC3)nc2cccnc21	-14%	-12%
COc1ccc(-n2c(=O)c3c(c4cc(OC)ccc4n3C)n(Cc3cccc(C)c3)c2=O)cc1	-25%	-7%
O=[N+]([O-])c1ccc(-c2cn3nc(-c4ccccc4)c(-c4ccccc4)nc3n2)cc1	i	4%
CCN(CCO)C(=S)Nc1cc(C(=O)OC)ccc1C(=O)OC	-10%	-13%

Other structures.
smiles	Vaccinia mCherry	VACV Venus inh
Cc1ccc(Cn2c(=O)n(-c3ccc(C)cc3)c(=O)c3c2c2cc(C)ccc2n3C)cc1	-7%	7%
C/C(=N\S(=O)(=O)c1ccc(C)cc1)N1CCN(S(=O)(=O)c2ccccc2)C1C(C)C (stereo not drawn)	-22%	-17%
Cc1ccc(CCNC(=O)CN(c2cc(C)cc(C)c2)S(=O)(=O)c2c(C)noc2C)cc1	-6%	-9%
CC1Cc2ccccc2N1Cc1cc(=O)c(OCC(=O)Nc2ccccc2)co1 (stereo not drawn)	-10%	-6%
COc1ccccc1-c1ncn(Cc2cccc(-c3ccccc3)c2)c1-c1cc(C)cc(C)c1	u	u
CC(Sc1nnnn1-c1ccc(O)cc1)C(=O)NC1CCCCC1C (stereo not drawn)	-5%	-15%
O=C(O)C12C[C@H]3C[C@@H](C1)CC(n1ncc(N4CCN(c5ccccc5)CC4)c(Cl)c1=O)(C3)C2	-9%	-8%
CCCN1C2CCCC1CC(NC(=O)c1cc(OC)c(OC)c(OC)c1)C2 (stereo not drawn)	-5%	0%
Cc1nnc(SCC(=O)Nc2ccc(-c3nc4ccccc4s3)cc2)s1	i	-8%
Cc1ccc(N(C(=O)Cn2nnc3ccccc32)C(C(=O)NC2CCCCC2)c2cn(C)nc2C)cc1 (stereo not drawn)	u	-14%
Cc1cn([C@H]2C[C@H](O)[C@@H](CCC(=O)NCC3CCCO3)O2)c(=O)[nH]c1=O (stereo partly drawn)	8%	1%
CSc1ccc(/C=C/c2nc3ccccc3n2S(=O)(=O)c2ccc(F)c(C)c2)cc1	-13%	-19%
Cc1ccccc1OCC(=O)Nc1ccccc1C(=O)OCc1cc(=O)n2ccsc2n1	-9%	1%
O=C(NC(=S)Nc1ccccc1N1CCOCC1)c1ccc(-c2cc(Cl)ccc2Cl)o1	-21%	-2%

In a second layout: results already given
Values in the order – Vaccinia mCherry, VACV Venus inh
> C/C(=N\S(=O)(=O)c1ccc(C)cc1)N1CCN(S(=O)(=O)c2ccccc2)C1C(C)C (stereo not drawn)
→ -22%, -17%
> CSc1ccc(/C=C/c2nc3ccccc3n2S(=O)(=O)c2ccc(F)c(C)c2)cc1
→ -13%, -19%
> Cc1ccc(CCNC(=O)CN(c2cc(C)cc(C)c2)S(=O)(=O)c2c(C)noc2C)cc1
→ -6%, -9%
> CC1Cc2ccccc2N1Cc1cc(=O)c(OCC(=O)Nc2ccccc2)co1 (stereo not drawn)
→ -10%, -6%
> O=C(NC(=S)Nc1ccccc1N1CCOCC1)c1ccc(-c2cc(Cl)ccc2Cl)o1
→ -21%, -2%

From PubChem BioAssay
